Screening data from PubChem.
H5N1 CPE = MDCK cell protection from H5N1 avian flu. 96,000 compounds, 0.07% hits. cytopathic effect, luminescence, 72 h; active compounds read high; no value below 0 was filed and about half of the inactive calls have no number; reference of the scale not given here. inhibition, % at 50 µM; in the data active = inhibition above about 25%
* marks the source's active call; other numbers are inactive results; i = inactive. Some of the compounds tested; rates above refer to the full screens.

SMILES	H5N1 CPE
CCC(C)(C(=O)NC1CCCCC1)N(C(=O)C1CCC(=O)N1)c1ccc(C)cc1 (stereo unspecified)	0.3
CC1CCCCN1CCNC(=O)c1cc2c(-c3ccccc3F)nn(C)c2s1 (stereo unspecified)	i
O=C1CCc2cc(S(=O)(=O)NCCC(=O)N3CCN(c4cccc(Cl)c4)CC3)ccc2N1	1.5
Cc1cccc(OCc2nc(C#N)c(NCCN(C)C)o2)c1	i
Cc1ccc(SCC(=O)Nc2cc(C)on2)cc1	0.2
Nc1cc(-c2nn[nH]n2)ccc1F	i
FC(F)(F)COc1nc(OCC(F)(F)F)nc(N2CCN(c3ccccc3)CC2)n1	0.7
CCC(C)(C)NC(=O)C1CCN(c2nc(C)cc(C)n2)CC1	i
Cc1nn(-c2nc(-c3ccco3)cc(C(F)(F)F)n2)c(C)c1Br	0.8
CCC1(C)Cc2c(sc3nc(SCC(=O)O)[nH]c(=O)c23)CO1 (stereo unspecified)	0.6
Cn1cccc1C(=O)NC(=O)COC(=O)CNS(=O)(=O)c1ccc(Br)cc1	0.3
CCOc1cc(S(=O)(=O)NC2CCCCC2)ccc1F	i
Cc1ccc(S(=O)(=O)N2C=CC(C(F)(F)F)=NCC2)cc1	0.9
COc1cc(-c2nc3cnccn3c2Nc2ccc(C)cc2)ccc1O	0.0
CCOC(=O)Cn1c(S(=O)(=O)Cc2cccc(F)c2)nc(-c2ccccc2)c1-c1ccccc1	4.9
CCCNC(=O)c1oc2ccc3c(c2c1C)C(=O)CC(C)(C)O3	0.5
Cc1ccc(-c2ccc(/C=N/N3C(=O)C4C5C=CC(CC5)C4C3=O)o2)c([N+](=O)[O-])c1 (stereo unspecified)	i
O=C(c1cnn2c(C(F)(F)F)cc(-c3ccccc3)nc12)N1CCOCC1	37.1*
CCc1nc(C)cn1S(=O)(=O)c1ccc(Cl)c(Cl)c1Cl	1.7
O=C(O)C1CCN(C(=O)OCc2ccccc2)CC1	0.1
Cn1c(N)c(C(=O)COC(=O)c2ccc(Br)o2)c(=O)n(C)c1=O	0.5
Cc1ccccc1NC(=O)C1CCCN1S(=O)(=O)c1cccc2cccnc12 (stereo unspecified)	2.4
COCc1nnc(NS(=O)(=O)c2ccc(NC(C)=O)cc2)s1	i
OCCN=C1CCCc2c1[nH]c1ccc(Br)cc21	1.0
COc1ccc(CCNC(=O)c2cc(-c3cc(C)c(C)cc3O)n[nH]2)cc1OC	0.5
CS(=O)(=O)c1nc(-c2cccs2)cc(C(F)(F)F)n1	26.1*
Cc1cccc(-n2c(O)c(C=NCCCN3CCOCC3)c3ccccc3c2=O)c1	i
COc1ccc2cc3c(N)c(C(=O)N4CCCC4)sc3nc2c1	0.1
N#Cc1nc(-c2ccc(F)cc2)oc1NCc1ccccc1	0.2
COC(=O)c1cc2n(n1)CCN(Cc1ccccc1Cl)C2=O	i

Molecules shown so far with a thiophene ring, fused or not:
SMILES	H5N1 CPE
CC1CCCCN1CCNC(=O)c1cc2c(-c3ccccc3F)nn(C)c2s1 (stereo unspecified)	i
CCC1(C)Cc2c(sc3nc(SCC(=O)O)[nH]c(=O)c23)CO1 (stereo unspecified)	0.6
CS(=O)(=O)c1nc(-c2cccs2)cc(C(F)(F)F)n1	26.1*
COc1ccc2cc3c(N)c(C(=O)N4CCCC4)sc3nc2c1	0.1

Going on with the list.
SMILES	H5N1 CPE
O=c1[nH]c(=O)n(CCC2=CCCCC2)c(O)c1C=NCCN1CCNCC1	0.1
CCCCOC(=O)CCc1nc2ccccc2[nH]1	i
CC1CCN(S(=O)(=O)c2cn(CC(=O)N3CCN(C)CC3)c(=O)c3ccccc23)CC1	1.0
c1ccc(CNc2ccc3ccccc3n2)nc1	i
COc1ccc(/C=N/Nc2nc(N3CCCC3)nc(N3CCCC3)n2)cc1O	i
CCOC(=O)c1cc(C(=O)Nc2ccc(C)c(F)c2)nn1C	i
Cc1cc(Cl)ccc1NC(=S)NCc1cccs1	i
COc1cccc(OCc2nnc(SCC(=O)OCc3ccccc3)o2)c1	i
COc1ccc(-c2cnn3c(N)c(S(=O)(=O)c4ccccc4)cnc23)cc1	7.2
CCCC(O)(CCN1CCOCC1)c1ccc(Br)cc1 (stereo unspecified)	i
O=C(Nc1ccc(Cl)cc1C(=O)c1ccccc1)c1ccco1	i
N#CC1=C(N)SC(N)=C(C#N)C1Cc1ccccc1	i
COc1nc(NCc2ccc(Cl)cc2)nc(OC)n1	i
CCOC(=O)CSc1ncc(-c2ccccc2)cn1	i
CC1C2CC(CC1(C)C)N(C(=O)Nc1ccc3nccnc3c1)C2 (stereo unspecified)	5.9

Filtered by structure, those above containing a cyano group.
SMILES	H5N1 CPE
Cc1cccc(OCc2nc(C#N)c(NCCN(C)C)o2)c1	i
N#Cc1nc(-c2ccc(F)cc2)oc1NCc1ccccc1	0.2
N#CC1=C(N)SC(N)=C(C#N)C1Cc1ccccc1	i

Later entries:
SMILES	H5N1 CPE
O=C(O/N=C\c1ccc(N2CCCCC2)c([N+](=O)[O-])c1)c1ccc(Cl)cc1Cl	0.5
CCOC(=O)CNC(=O)CCCCCC(=O)NCC(=O)OCC	i
CC(C)C(OC(=O)c1cccs1)C(=O)NCc1ccco1 (stereo unspecified)	0.1
CCCSc1nc2c(c(=O)n1CC)SC(C)C2 (stereo unspecified)	i
COc1ccc(C(=O)N2CCC(C(=O)O)CC2)cc1	0.2
C=CCN(CC=C)S(=O)(=O)c1ccc(NC(=S)NC(=O)c2ccco2)cc1	0.1
CCN(CC)C(=O)COc1ccc(-c2nnc(N3CCCCC3)c3ccccc23)cc1	0.0
CSCCC(NC(=O)c1ccc(Cl)cc1)C(=O)NC(C)(C)C (stereo unspecified)	0.1
CN(C)CCCNC(=O)Cc1ccc(Br)cc1	i
O=C(CN1CCN(c2ccccc2)CC1)Nc1nnc(-c2ccccc2)s1	i
CCNc1nc(N2CCCCC2)nc(-n2nnc(C(=O)OCC)c2C)n1	0.2
N=c1c2c(-c3ccccc3)c(-c3ccccc3)n(Cc3ccccc3)c2ncn1CCO	i
N#Cc1c(N)nc(SCc2ccccn2)c(C#N)c1-c1cccs1	i
CSc1nc2ccccc2n1Cc1cccc(F)c1	0.3
CCOC(=O)c1cccc(NC(=O)CSc2nnc(-c3ccoc3C)n2CC)c1	0.5
CCC1CCCCN1CCCNC(=O)CC1Oc2ccc(C)cc2NC1=O (stereo unspecified)	i
COC(=O)Cn1c(CCC(=O)O)ccc1-c1ccccc1	1.8
Cc1cccc(NC2SC(=O)N(c3ccccc3)C2=O)c1 (stereo unspecified)	i
CC(=O)Nc1nc2nc(-c3ccccc3)cc(-c3ccccc3)n2n1	1.2
CC(C)(C)c1ccc(O)c(CN2CCN(c3ccccc3)CC2)c1	i
CCOC(=O)N1CCN(C(=O)CCS(=O)(=O)c2ccc(Br)s2)CC1	i
COc1ccc(N(CC(=O)Nc2cc(C)on2)S(=O)(=O)c2ccc(Cl)cc2)cc1	i
Cc1cc(=O)[nH]c(SCC(=O)Nc2ccccc2C#N)c1C#N	i
CC1(C)CC(=O)c2sc(N3CCCCC3)nc2C1	0.6
CC(C)(C)n1ncc2c(=O)n(CC(=O)NCc3ccccc3Cl)cnc21	i
Clc1ccccc1CSc1nnc(Cn2cnc3ccccc32)n1-c1ccccc1	12.6
O=C(NCc1ccco1)c1ccc(Cl)c(S(=O)(=O)N2CCOCC2)c1	2.4
CCCCOc1cc(=O)[nH]c(=O)[nH]1	i
Cc1cc(=O)n2c3ccccc3n(CC(O)CN3CCCCC3)c2c1C#N (stereo unspecified)	1.7
CC1CCN(C(=O)c2cc(-c3ccccc3O)on2)CC1	1.6

Compounds above that have an aryl thioether with sulfur outside any ring (ten):
SMILES	H5N1 CPE
Cc1ccc(SCC(=O)Nc2cc(C)on2)cc1	0.2
CCC1(C)Cc2c(sc3nc(SCC(=O)O)[nH]c(=O)c23)CO1 (stereo unspecified)	0.6
COc1cccc(OCc2nnc(SCC(=O)OCc3ccccc3)o2)c1	i
CCOC(=O)CSc1ncc(-c2ccccc2)cn1	i
CCCSc1nc2c(c(=O)n1CC)SC(C)C2 (stereo unspecified)	i
N#Cc1c(N)nc(SCc2ccccn2)c(C#N)c1-c1cccs1	i
CSc1nc2ccccc2n1Cc1cccc(F)c1	0.3
CCOC(=O)c1cccc(NC(=O)CSc2nnc(-c3ccoc3C)n2CC)c1	0.5
Cc1cc(=O)[nH]c(SCC(=O)Nc2ccccc2C#N)c1C#N	i
Clc1ccccc1CSc1nnc(Cn2cnc3ccccc32)n1-c1ccccc1	12.6

New compounds follow
SMILES	H5N1 CPE
CCCCn1c(SCC(=O)NCc2ccco2)nc2c(sc3ccccc32)c1=O	0.1
CCOC(=O)c1[nH]c2ccc(C)cc2c1NC(=O)CN1CCCCC1	i
COc1cccc(OC)c1OCC(C)CNCC1CCCO1 (stereo unspecified)	i
CC(=O)Oc1ccc(C2OC(=O)c3ccccc3N2C(C)=O)cc1 (stereo unspecified)	i
O=C(NC1CCCC1)C(c1ccsc1)N(C(=O)Cc1cccs1)c1cccc(F)c1 (stereo unspecified)	0.9
Fc1ccc(-c2csc3ncnc(Nc4ccc(N5CCOCC5)cc4)c23)cc1	i
CSc1ccccc1NC(=O)c1ccccc1N(C)S(C)(=O)=O	i
CNC(=O)c1ccc(-c2ccccc2)s1	i
Cn1c(SCC(=O)N2CCc3ccccc32)nc2cccnc21	1.1
CC(C)Oc1ccc(C2C(C(=O)c3ccco3)=C(O)C(=O)N2Cc2cccnc2)cc1 (stereo unspecified)	1.7
COCc1nnc(NC(=O)CS(=O)(=O)Cc2ccccc2)s1	i
O/N=C/c1ccccc1Oc1ccccc1	i
COc1ccc(N2CCN(C3CC(=O)N(Cc4ccc(N5CCCC5=O)cc4)C3=O)CC2)cc1 (stereo unspecified)	0.3
O=C(CC1NCCNC1=O)Nc1ccc2c(c1)OCCO2 (stereo unspecified)	i
Cc1nc2ccc(C(=O)c3ccccc3)cc2[nH]1	i
C=CCN=C(NC#N)SCc1ccccc1	4.2
CCN1C(=O)CC(c2ccco2)Sc2ccccc21 (stereo unspecified)	i
CCn1c(SCC(=O)N2CCN(c3ccccc3)CC2)nnc1-c1c[nH]c2ccccc12	14.0
CCn1c(SCC(=O)Nc2ccccc2N2CCOCC2)nnc1-c1ccccc1	0.1
C=CCN1C(=O)C(CC(=O)O)SC1=Nc1c(C)n(C)n(-c2ccccc2)c1=O (stereo unspecified)	i
O=c1oc2ccccc2n1CCCCCn1c(=O)oc2ccccc21	0.8
COc1ccc(OC)c(-c2nc(C(N)=O)c3[nH]c(=O)n(-c4ccc(F)cc4)c3n2)c1	2.6
O=S(=O)(Nc1ccc(Oc2ncccn2)c(Cl)c1)c1ccc(F)cc1	0.3
CC(C)C(NC(=O)CSc1ccc(Cl)cc1)C(C)C	0.1
CCOC(=O)c1c(OCC)[nH]c2ccc(O)cc12	i
COCCN(Cc1cc2cc3c(cc2nc1Cl)OCO3)C(=O)Nc1ccc(F)cc1	0.9
CSc1nc(C)c(CCOCc2ccccc2)c(=O)[nH]1	i
CCn1c(N)c(C(=O)Nc2ccccc2C(=O)OC)sc1=S	i
Fc1ccc(COc2ccc(/C=N/n3cnnc3)cc2)cc1	0.2
O=C(Nc1nnc(-c2ccco2)s1)C1CC1	0.6
Cc1cn2c(-c3ccc(Cl)cc3)nnc2s1	24.8
CCOc1cc(NC(=S)Nc2cccc(OC)c2)c(OCC)cc1NC(=O)C1CC1	i
COc1ccccc1-c1cc(C(=O)N2CCN(c3ccccc3OC)CC2)no1	i
Cc1ccc(NC(=O)c2nc[nH]c2C(=O)N2CCCCC2)c(C(=O)c2ccccc2)c1	1.4
COc1ccc(C2C(C(=O)N3CCOCC3)=C(C)NC3=C2C(=O)CC(C)(C)C3)c(OC)c1 (stereo unspecified)	0.0
O=[N+]([O-])c1cccc(/C=N/Nc2cc(Cl)nc(-c3ccccc3)n2)c1	i
Cc1ccc(N(CC(=O)N2CCc3ccccc32)S(=O)(=O)c2cccs2)cc1	i
COc1cccc(C2NC(=O)NC(C)=C2C(=O)Nc2cc(OC)ccc2OC)c1 (stereo unspecified)	i
Cc1noc(C)c1CSc1nc2ccccc2c(=O)n1-c1ccccc1	1.1
CCN(CC)C(=O)Oc1ccc2c(=O)c(-c3ccc(OC)cc3)c(C)oc2c1	0.3
CCOC(=O)c1cc(S(=O)(=O)N2CCN(C(=O)OCC)CC2)cn1C	0.9
CCc1cc(=O)oc2cc(C)cc(O)c12	0.5
CC(=O)c1cc2c(cc1NC(=O)c1cnc(C)cn1)OCO2	0.9
C/C(N)=C(/C#N)C(=O)CSc1nnc(COc2ccccc2Cl)o1	1.3
N#Cc1c(-c2cccs2)cc(-c2ccccn2)nc1N	1.2
COc1ccc(NC(=O)NC(C)c2ccncc2)cc1OC (stereo unspecified)	0.4
CC(=O)Oc1ccc2oc(=O)c3c(c2c1)CCCN3C(=O)CN1CCN(c2ncccn2)CC1	3.3
NC(=O)C1CCN(C2CC(=O)N(c3ccc(F)c(Cl)c3)C2=O)CC1 (stereo unspecified)	i
Cc1cc(NCCCn2ccnc2)n2nc(C)c(-c3ccccc3)c2n1	i
CCCOc1cccc(C2C(C(=O)c3ccco3)=C(O)C(=O)N2CCN(CC)CC)c1 (stereo unspecified)	i
O=C(CSc1ncn[nH]1)Nc1ccccc1Sc1ccc(Cl)cc1	5.4
C=CC[N+]1(CC#CCOC(c2ccccc2)c2ccccc2)CCOCC1	1.1
CCN(CC)CC(=O)Nc1ccc(C)cc1Br	1.0
Cc1cc(NS(=O)(=O)c2ccc(NC(=O)C(CC(C)C)N3C(=O)c4ccccc4C3=O)cc2)nc(C)n1 (stereo unspecified)	0.1
Cc1csc(NC(=O)C2CCCN(S(=O)(=O)c3ccc(Br)s3)C2)n1 (stereo unspecified)	i
Cc1cc(=O)n(CC=C(Cl)Cl)c2ccccc12	i
Cn1c(=O)cc(N2CCCCC2)[nH]c1=O	1.0
O=C(CCN1C(=O)c2ccccc2C1=O)Nc1ccc(S(=O)(=O)NC2=NCCCCC2)cc1	1.0
CCOC(=O)C1=C(N)OC2=C(C(=O)CC(C)(C)C2)C1c1ccccc1OCC#N (stereo unspecified)	i
O=C(CC1CCCC1)NCCc1cn2ccccc2n1	0.3

Further compounds follow.
SMILES	H5N1 CPE
Cc1ccc(S(=O)(=O)N/N=C\C=C\c2ccccc2)cc1	1.9
NS(=O)(=O)c1cccnc1Nc1c(Cl)cccc1Cl	0.3
O=C(Nc1ccc(-c2nnc(-c3ccco3)o2)cc1)C(c1ccccc1)c1ccccc1	0.0
CC(C)Cn1c(SCC#N)nc2ccccc2c1=O	i
